# Rango dissoc inh – prevents RanGTP from dissociating the Rango-importin beta complex. O95149+P62826. Biochemical FRET Rango-importin beta, RanGTP-induced dissociation. Potency, µM (series often up to 46.1 µM), inactives show top-dose activity change, negative = inhibition. 0.071% of 340,000 active; active means falling FRET ratio curve, often poorly fitted, with flat reads before Ran was added; inconclusive means other falling curves, or compound fluorescence or quenching; inactive means flat or rising ratio curve;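 further: potency means the concentration at half of the fitted maximal effect; % of control where 0% means no effect; nearly all actives have a fitted effect of over 45% in size; -100% = wells without RanGTP and RCC1; the record marks most hits as doubtful in a second field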
#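 FRET read at 45 min, room temperature: inhibitors block the CFP/YFP signal rise when RanGTP (0.6 uM Ran, 2 mM GTP, 0.2 uM RCC1) frees Rango (0.1 uM) from importin beta (0.25 uM). Pre-read after 5 min compound exposure flags interference.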
# miR-21 FLuc – miR-21 reporter, rising signal; HeLa miR-21 FLuc reporter, luciferase, 48 h; Potency, µM (highest dose often 38.3 µM), for the others: at the highest dose reporter change, positive = more light; 340,000 tested, under 10 active; active = well fitted rising curve with a large enough effect; inconclusive = small, poorly fitted or top-dose-only effect; inactive = no such curve, though single readings can be large or run the other way;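 further: % of control where 0% means no effect; miR-21 action dims this reporter so a rising signal means less miR-21 action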
#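 HeLa cells endogenously expressing miR-21, stably carrying CMV-driven firefly luciferase with a downstream miR-21 binding site, 2000 cells/well. Titrations up to approximately 40 uM, 48 hours; luciferase luminescence read.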
# GLA inh pH 4.5 – inhibitors of human alpha-galactosidase A at pH 4.5 | P06280 | purified enzyme, 4-MU-alpha-Gal fluorescence, pH 4.5 | activity change, negative = inhibition, % at 105 µM | 230,000 tested, under 10 active | AID 1467; inconclusive = small, poorly fitted or top-dose-only inhibition, or a rising curve; inactive = flat fitted curve, though single readings scatter; no compound was filed as active;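 further: 0% = full activity with enzyme and -100% = basal without enzyme; dose as in the result columns while the protocol names 77 µM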
# Rango-impB inh – Rango-importin beta binding inhibition | Q14974 | Rango CFP/YFP FRET sensor + importin beta, 45 min | Potency, µM (doses to about 92.2 µM), for the others: at the top dose inhibition of complex formation | 0.031% of 340,000 active; active = rising FRET ratio curve, often small or poorly fitted; inconclusive = mostly compound fluorescence or quenching in the first reads; inactive = flat curves in all reads;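 further: potency means the concentration at half of the fitted maximal effect; 0% = DMSO wells and 100% = buffer wells lacking importin beta; nearly all actives have a fitted effect of over 15% in size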
# Target sequence (Q14974 whole entry, looked up): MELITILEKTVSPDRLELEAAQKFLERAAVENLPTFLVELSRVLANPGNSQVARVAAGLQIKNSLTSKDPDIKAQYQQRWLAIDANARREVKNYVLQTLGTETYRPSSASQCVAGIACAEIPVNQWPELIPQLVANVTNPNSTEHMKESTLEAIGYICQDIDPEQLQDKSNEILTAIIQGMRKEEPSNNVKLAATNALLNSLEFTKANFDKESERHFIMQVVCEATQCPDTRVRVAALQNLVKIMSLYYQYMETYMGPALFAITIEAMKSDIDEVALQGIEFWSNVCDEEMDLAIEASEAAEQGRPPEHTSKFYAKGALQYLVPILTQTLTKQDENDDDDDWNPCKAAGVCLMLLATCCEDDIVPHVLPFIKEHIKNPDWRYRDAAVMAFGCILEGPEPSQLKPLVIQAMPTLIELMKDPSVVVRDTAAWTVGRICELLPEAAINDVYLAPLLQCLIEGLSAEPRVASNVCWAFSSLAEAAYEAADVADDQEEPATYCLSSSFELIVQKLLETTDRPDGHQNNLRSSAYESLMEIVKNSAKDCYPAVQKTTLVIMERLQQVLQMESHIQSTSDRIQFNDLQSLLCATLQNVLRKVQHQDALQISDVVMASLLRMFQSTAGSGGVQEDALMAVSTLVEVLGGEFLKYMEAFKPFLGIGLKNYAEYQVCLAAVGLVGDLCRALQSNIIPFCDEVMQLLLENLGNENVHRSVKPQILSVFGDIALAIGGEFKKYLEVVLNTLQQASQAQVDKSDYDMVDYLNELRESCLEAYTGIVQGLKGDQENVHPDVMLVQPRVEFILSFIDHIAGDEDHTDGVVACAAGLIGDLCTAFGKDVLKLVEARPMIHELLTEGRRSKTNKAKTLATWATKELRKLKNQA
#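 FRET biosensor (snurportin 1 IBB flanked by EYFP and cerulean), 50 nM, with compound 5 min, then 0.125 microM importin beta in PBS, 1 mM DTT, 0.02% Tween-20, 0.1% BSA. CFP/YFP ratio read after 45 min at room temperature; pre-read flags interference.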
# * hit, by the source's call; u = inconclusive; x = not tested or not shown; & = joins results of further samples; [ ] = remark or other dose.
(1) O=[N+]([O-])c1cc(Cl)ccc1N1CCCCC1
(2) Cc1cc(C)c(OCC(=O)Nc2cc(C(=O)O)cc(C(=O)O)c2)cc1C
(3) CC(=O)/C=C/c1ccc2ccccc2n1
(4) CC(=O)N1CCN=C1SCc1ccccc1F
(5) O=C(Nc1ccncc1)c1cc(S(=O)(=O)N2CCOCC2)ccc1Cl
(6) CCOc1ccc2oc(C(=O)N3CC(C)OC(C)C3)c(C)c2c1 (stereo unspecified)
(7) Cc1[nH]c(=O)[nH]c(=O)c1S(=O)(=O)Nc1ccc(F)cc1Cl
(8) CCOC(=O)c1ccsc1NC(=O)c1ccco1
assay / entry	1	2	3	4	5	6	7	8
Rango dissoc inh	-13%	-9%	-1%	-12%	0%	-2%	-8%	9%
miR-21 FLuc	0%	0%	u	-13%	x	-16%	1%	-3%
GLA inh pH 4.5	0[21.1 µM]	-8	1	6	x	x	x	x
Rango-impB inh	-0.9%	-3.6%	-1.0%	3.6%	-2.5%	1.3%	0.1%	-1.6%

# Whole records, quoted from the list. Values in the order: Rango dissoc inh	miR-21 FLuc	GLA inh pH 4.5	Rango-impB inh
# O=[N+]([O-])c1cc(Cl)ccc1N1CCCCC1 is listed with -13%	0%	0[21.1 µM]	-0.9%
# CC(=O)/C=C/c1ccc2ccccc2n1 is listed with -1%	u	1	-1.0%
# CCOC(=O)c1ccsc1NC(=O)c1ccco1 is listed with 9%	-3%	x	-1.6%
# Cc1[nH]c(=O)[nH]c(=O)c1S(=O)(=O)Nc1ccc(F)cc1Cl is listed with -8%	1%	x	0.1%

# Following part.
(9) COc1ccc(CC(=O)N2CCc3cc(OC)c(OC)cc3C2C)c(OC)c1 (stereo unspecified)
(10) Cc1c(CCC(=O)O)c(=O)oc2cc(OCc3ccc(Br)cc3)ccc12
(11) Cn1c(=O)c2c(nc(NCC3CCCO3)n2C)n(C)c1=O (stereo unspecified)
(12) O=C(CCC(=O)N(c1cccc(F)c1)C(C(=O)NC1CCCC1)c1ccncc1)Nc1cccnc1 (stereo unspecified)
(13) O=C1NC(=Nc2ccccc2Cl)S/C1=C\c1cccc([N+](=O)[O-])c1O
(14) CCOC(=O)C1=NOC2C(=O)N(c3ccc(Cl)cc3Cl)C(=O)C12 (stereo unspecified)
(15) CCOC(=O)c1c(N)c(C#N)nn1-c1ccccc1C(=O)OC
(16) Cc1cccc(CC2CC(=O)N(c3nc4ccccc4s3)C2=O)c1 (stereo unspecified)
assay / entry	9	10	11	12	13	14	15	16
Rango dissoc inh	0%	18%	22%	0%	-10%	-13%	x	25%
miR-21 FLuc	-2%	-4%	1%	-7%	-3%	-10%	-7%	0%
GLA inh pH 4.5	x	x	0	-3	x	-3	4	1
Rango-impB inh	-4.6%	-1.6%	1.8%	11%	4.7%	-4.2%	x	-0.2%

(17) Cn1cc(Br)c(C(=O)Nc2c(F)c(F)c(F)c(F)c2F)n1
(18) Cc1cc(C)c(OCC(=O)N/N=C/c2ccco2)c(C)c1
(19) COc1ccc2[nH]c3c(c2c1)CCN1C(=O)C(CC(=O)NCCC2=CCCCC2)C[C@H](C(=O)N2CCCCC2)[C@@]31CCc1ccccc1 (stereo partly specified)
(20) CCN(C)Cc1c(C(=O)N2CCc3ccccc3C2)nc2ccc(Cl)cn12
(21) Cc1ccc(CNS(=O)(=O)c2cn(C)c(=O)n(C)c2=O)cc1
(22) Oc1ccccc1C(=S)N1CCCC1
(23) COc1ccc(CNC(=O)C2CCN(S(=O)(=O)c3ccc4c(c3)N(C(C)=O)CCO4)CC2)cc1
(24) Cc1nn(C)c(C)c1NC(=O)c1ccccc1NC(=O)Nc1ccccc1
assay / entry	17	18	19	20	21	22	23	24
Rango dissoc inh	3%	-9%	6%	-14%	0%	-20%	-12%	-1%
miR-21 FLuc	-8%	0%	x	-1%	-2%	-6%	1%	-14%
GLA inh pH 4.5	-3	4	x	5	x	x	x	1
Rango-impB inh	-5.6%	-3.1%	-2.1%	-3.4%	1.5%	2.4%	-4.8%	6.9%

(25) CN(C)S(=O)(=O)N1CCC(Oc2cccc(C(=O)NC3CCCCCC3)c2)CC1
(26) CC(=O)Nc1ccc(C(=O)OC2CCCCC2=O)cc1 (stereo unspecified)
(27) O=C(NCCCCCCOC1=NS(=O)(=O)c2ccccc21)C(=O)Nc1ccccc1
(28) C=C(C)[C@@H]1CC=C(CN2CCN(Cc3ccccc3)CC2)CC1
(29) Nc1nc(SCC(=O)Nc2ccc([N+](=O)[O-])cc2)n[nH]1
(30) c1ccc2c(N3CCCCC3)nc(N3CCCCC3)nc2c1
(31) Cc1nn(Cc2ccccc2)c(Cl)c1C(=O)OCc1nnc(-c2ccc(Cl)cc2)o1
(32) O=C(C1CCN(Cc2ccc(Cl)cc2)CC1)N1CCN(C(c2ccccc2)c2ccccc2)CC1
assay / entry	25	26	27	28	29	30	31	32
Rango dissoc inh	6%	1%	-26%	7%	u	0%	6%	11%
miR-21 FLuc	27%	-8%	-19%	-1%	-3%	-4%	-11%	15%
GLA inh pH 4.5	x	6	0	x	5	3	-5	-8
Rango-impB inh	0.0%	0.1%	-1.8%	4.5%	u	0.3%	-2.7%	4.3%

# Brought forward from above: 4 compounds, then new ones.
(29) Nc1nc(SCC(=O)Nc2ccc([N+](=O)[O-])cc2)n[nH]1
(30) c1ccc2c(N3CCCCC3)nc(N3CCCCC3)nc2c1
(31) Cc1nn(Cc2ccccc2)c(Cl)c1C(=O)OCc1nnc(-c2ccc(Cl)cc2)o1
(32) O=C(C1CCN(Cc2ccc(Cl)cc2)CC1)N1CCN(C(c2ccccc2)c2ccccc2)CC1
(33) CNc1ccccc1-n1ccc(-c2ccccc2)n1
(34) Cc1cccc(C)c1OCc1nc2ccccc2c(=O)n1/N=C/c1c[nH]c2ccccc12
(35) COc1cccc(CN2CCNC(=O)C2CC(=O)NCCn2ccc3ccccc32)c1OC (stereo unspecified)
(36) Nc1nnc(SCn2nnc3ccccc3c2=O)s1
(37) CC(C)(C)NC(=O)CN(C(=O)c1snc(C(=O)NC2CCCCC2)c1N)c1ccccc1F
(38) Cc1nn(-c2ccccc2)c2c1C1(C(=O)N(C)c3ccccc31)C(C#N)=C(N)O2 (stereo unspecified)
(39) O=C(OC(C(=O)Nc1cc(Cl)cc(Cl)c1)c1ccccc1)C1=COCCO1 (stereo unspecified)
(40) O=C(O)c1ccc(N/N=C/c2ccncc2)cc1
assay / entry	29	30	31	32	33	34	35	36	37	38	39	40
Rango dissoc inh	u	0%	6%	11%	15%	-2%	-3%	20%	-4%	20%	-17%	7%
miR-21 FLuc	-3%	-4%	-11%	15%	-31%	17%	-2%	-23%	12%	-2%	-6%	-38%
GLA inh pH 4.5	5	3	-5	-8	-4	-6	-1	-9	x	-5	2	x
Rango-impB inh	u	0.3%	-2.7%	4.3%	0.2%	-0.4%	-0.2%	0.5%	2.4%	3.6%	u	-0.5%

# Values in list order from the entries so far.
# miR-21 FLuc, nos. 33 to 38 → -31%, 17%, -2%, -23%, 12%, -2%
# Rango-impB inh, nos. 33 to 38 → 0.2%, -0.4%, -0.2%, 0.5%, 2.4%, 3.6%

# Next section:
(41) CCOC(=O)N1CCN(C(=O)c2cn(CC)c3ccc(S(=O)(=O)N(C)C4CCCCC4)cc3c2=O)CC1
(42) O=C(NCCN1CCOCC1)c1ccc2c(c1)N(Cc1ccc(F)cc1)C(=O)CS2
(43) COc1cc(Br)cc(/C=N/NC(=O)Cc2ccccc2)c1O
(44) C/C(=N\NC(=O)c1cc(O)ccc1O)c1cccc(NC(=O)c2cccc(Cl)c2)c1
(45) O=C(CSc1nc2c(cnn2-c2ccc(F)cc2)c(=O)[nH]1)N1CCCCCC1
(46) NC(=O)COc1ccccc1
(47) CN(C)c1nc(OCCNC(=O)COc2ccc(Cl)cc2Cl)nc(N2CCOCC2)n1
(48) CC(OC(=O)c1ccc(-n2cnnn2)cc1)C(=O)NCc1ccccc1 (stereo unspecified)
assay / entry	41	42	43	44	45	46	47	48
Rango dissoc inh	-1%	-1%	u	2%	3%	-18%	7%	11%
miR-21 FLuc	-4%	-2%	x	-36%	-7%	-1%	-3%	x
GLA inh pH 4.5	x	8	x	x	6	-2	-9	x
Rango-impB inh	1.7%	-3.9%	u	-2.2%	-4.9%	-0.2%	-0.3%	3.5%

(49) COC(=O)CCC(=O)OC1(C)C(=O)C2=CN(CCN3CCOCC3)C(c3ccc(OC)cc3)=CC2=C(Br)C1=O (stereo unspecified)
(50) Clc1ccc(-c2cn3cc(Br)ccc3n2)cc1Cl
(51) COC/C=C/C1=CC(=O)C[C@H](c2ccc3c(c2)OCO3)C1
(52) CCCCC(=O)NC(=S)Nc1cccc(Cl)c1N1CCCCC1
(53) Cc1cccc(CCNC(=O)c2nnc(Cc3ccc(Cl)cc3)o2)c1
(54) CC(C)c1c(C(=O)N/N=C/c2ccc(Cl)cc2Cl)nnn1-c1nonc1N
(55) O=C(/C=C/c1ccccc1F)N1CCN(c2ccccn2)CC1
(56) COc1ccc(-c2cc(C(=O)N3CCCCC3)c3ccccc3n2)cc1OC
assay / entry	49	50	51	52	53	54	55	56
Rango dissoc inh	x	-15%	11%	u	3%	-11%	-8%	10%
miR-21 FLuc	3%	-52%	x	-3%	-4%	0%	-20%	-1%
GLA inh pH 4.5	0&-9	6	x	4	7	x	x	x
Rango-impB inh	x	-3.1%	0.3%	-3.7%	2.0%	2.2%	-4.2%	-2.3%

(57) CCCCn1c(N)c(N(CC)C(=O)CSCC(=O)Nc2ccc(OC)cc2)c(=O)[nH]c1=O
(58) COc1ccc(NC(=O)Nc2ccc3c(c2)CCC3)cc1
(59) COc1cc(C2=NOC(C(=O)NC3CCCCC3)C2)cc(OC)c1OC (stereo unspecified)
(60) CCCCCCCCOc1ccc(C2CC(=O)NC2=O)cc1 (stereo unspecified)
(61) Cc1cc(C(=O)OCC(=O)NCc2ccco2)c(C)n1-c1ccc(F)cc1
(62) Cc1ccc(-c2nnn(CC(=O)N3c4ccccc4CCc4ccccc43)n2)cc1
(63) CN(CC(=O)Nc1ccc(F)cc1)C(=O)c1ccc(OCc2cn3ccccc3n2)cc1
(64) COCCC(=O)Nc1ccc2c(c1)CN(C(=O)CCSC)CC2
assay / entry	57	58	59	60	61	62	63	64
Rango dissoc inh	1%	1%	-6%	10%	u	1%	4%	-5%
miR-21 FLuc	x	-47%	-1%	1%	11%	0%	x	1%
GLA inh pH 4.5	x	x	-9	x	-2	-18	x	-10
Rango-impB inh	-1.4%	-0.6%	-0.3%	0.0%	1.7%	-1.4%	-1.9%	2.9%

(65) CCN1CC(CN(C)Cc2cn(-c3cccc(C)c3)nc2-c2cccc(F)c2)CC1=O (stereo unspecified)
(66) Cc1ccc(NC(=O)C2CCCN(S(=O)(=O)c3c(C)noc3C)C2)c(Br)c1 (stereo unspecified)
(67) CCN(C(=O)COC(=O)CNC(=O)c1ccc(F)cc1)C1CCS(=O)(=O)C1 (stereo unspecified)
(68) Cc1cccc(-n2c(C)cc(/C=N/NC(=O)c3ccc(CN4CCOCC4)cc3)c2C)c1
(69) CCOC(=O)C1C(=O)C=C(Nc2ccccc2F)CC1c1ccccc1 (stereo unspecified)
(70) O=C1C=C(c2ccc3[nH]ccc3c2)CCC1
(71) COc1ccc(NCc2nnc(SCC(=O)Nc3ccc(OC)cc3OC)o2)cc1
(72) O=C(Nc1ccccc1C(=O)NC(Cc1ccc(O)cc1)C(=O)O)c1ccccc1 (stereo unspecified)
assay / entry	65	66	67	68	69	70	71	72
Rango dissoc inh	9%	3%	31%	2%	6%	21%	2%	-8%
miR-21 FLuc	7%	-5%	0%	1%	-56%	x	3%	4%
GLA inh pH 4.5	-5	x	9	-2	5	x	5	-4
Rango-impB inh	-0.5%	2.7%	-1.7%	0.4%	-0.6%	-1.7%	1.8%	0.6%

# From PubChem BioAssay

# This is a subset; the hit share may differ from the screen's.
